From PubChem BioAssay
2A StopGo: lowers the luciferase signal of an FMDV 2A StopGo reporter; human cells with a luciferase reporter of 2A StopGo recoding; control for the full effect not named in the record; Potency, µM (series often up to 57.9 µM), for inactives: at the top dose signal change, negative = less light; 410,000 tested, 1.2% active; AID 1159524; active = well fitted falling curve with a large enough effect; inconclusive = small, poorly fitted or top-dose-only effect; inactive = no such curve, though single readings can be large or run the other way; tested in HEK293T cells; note: % is set by controls: 0 for no effect and ±100 for the full control effect; nearly all actives have a fitted effect of over 45% in size; luciferase light after 4 h
Cruzain inh noDet: blocks cruzain activity in detergent-free assay | P25779 | purified cruzain, Z-FR-AMC fluorescence, no detergent | Potency, µM, for inactives: max response, negative = inhibition, hits mostly inhibitors | 200,000 tested, 2.3% active; active = well fitted curve in the direction sought with a large enough effect; inconclusive = small, poorly fitted or top-dose-only effect, or another doubt; inactive = no such curve, though single readings can be large; an effect the other way counts as inactive or inconclusive;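 note: plate controls were enzyme without inhibitor for no effect and buffer without enzyme for full effect; nearly all actives have a fitted effect of over 40% in size; top concentration of the series not given in the record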
Target sequence (P25779 123-467 limits assumed): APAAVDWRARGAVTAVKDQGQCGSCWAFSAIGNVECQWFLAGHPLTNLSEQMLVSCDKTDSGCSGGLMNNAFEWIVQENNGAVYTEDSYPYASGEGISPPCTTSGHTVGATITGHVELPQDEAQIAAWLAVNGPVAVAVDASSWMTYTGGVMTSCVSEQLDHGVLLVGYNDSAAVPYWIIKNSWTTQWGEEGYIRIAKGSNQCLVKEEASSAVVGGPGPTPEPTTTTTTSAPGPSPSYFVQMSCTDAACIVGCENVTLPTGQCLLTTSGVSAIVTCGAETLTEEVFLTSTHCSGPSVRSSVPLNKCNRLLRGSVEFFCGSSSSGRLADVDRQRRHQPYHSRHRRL
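Purified cruzain at 1.5 nM, pre-incubated 15 min with compound at room temperature in 100 mM sodium acetate pH 5.5, 5 mM DTT, 0.00005% Triton X-100. Reaction started with 2 uM Z-FR-AMC; AMC fluorescence increase over 60 s gives rate.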
LASV entry inh: inhibitors of Lassa virus binding or cell entry; 300,000 tested, 1.2% active; Lassa virus pseudotype entry inhibition, cell reporter; control for the full effect not named in the record; Potency, µM (titrated, usually from 37.9 µM), without a hit: top-dose activity change, negative = inhibition, actives largely listed as inhibitors; active means well fitted inhibition curve with a large enough effect; inconclusive means small, poorly fitted or top-dose-only effect, or effect the other way; inactive means flat fitted curve, though single readings scatter; tested in HEK293 cells; note: % is set by controls: 0 for no effect and ±100 for the full control effect; nearly all actives have a fitted effect of over 50% in size; luciferase read-out
RE007 growth inh: less growth of the S. pombe RE007 Vpr strain; 360,000 tested, 0.21% active; Potency, µM (series often up to 92.2 µM), without a hit: top-dose activity change, negative = less growth; S. pombe RE007 Vpr strain, BacTiter-Glo ATP luminescence, 24 h; control for the full effect not named in the record; active = well fitted falling curve with a large enough effect; inconclusive = small, poorly fitted or top-dose-only effect; inactive = no such curve, though single readings can be large or run the other way;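 note: % is set by controls: 0 for no effect and ±100 for the full control effect; nearly all actives have a fitted effect of over 50% in size; the assay follows cell death caused by Vpr and the record does not say whether a fall means rescue or toxicity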
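Fission yeast strain RE007, carrying one chromosomally integrated HIV-1 vpr copy, was seeded at OD 0.01 in PMG+AL medium with 23 nL pinned compound. After 24 h at 30 °C and 99% humidity, viability was read by BacTiter-Glo luminescence.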
SARS PLP yeast: inhibitors of SARS-CoV papain-like protease in yeast. Potency, µM (top dose mostly 32.9 µM), without a hit: at the highest dose activity, positive = growth rescue. S. cerevisiae expressing SARS-CoV PLpro, growth rescue; control for the full effect not named in the record. 330,000 tested, 0.19% active; note: 0% is about no effect; nearly all actives have a fitted effect of over 55% in size; growth read by luminescence after 48 h
NS1 function inh: influenza NS1 inhibition; S. cerevisiae slowed by influenza A NS1, growth recovery by OD600; Potency, µM (top dose mostly 46.1 µM), for the others: top-dose activity, positive = more growth; 270,000 tested, 0.4% active; AID 2326; note: actives are rising curves; nearly all actives have a fitted effect of over 50% in size
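Compounds were scored for reversing the slow growth caused by influenza A NS1 in S. cerevisiae, measured by optical density at 600 nm. Assay medium contained 2% galactose at pH 6.0; NS1-free yeast of the same strain were the positive control.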
MARV entry inh: Marburg virus entry inhibition; Marburg virus pseudotyped entry inhibition, cell reporter; control for the full effect not named in the record; about a third of the inactives were read at about 46 µM; Potency, µM (doses to about 37.8 µM), inactives show at the top dose activity change, negative = inhibition, actives largely listed as inhibitors; 300,000 tested, 1.8% active; AID 540276; active = well fitted inhibition curve with a large enough effect; inconclusive = small, poorly fitted or top-dose-only effect, or effect the other way; inactive = flat fitted curve, though single readings scatter; tested in HEK293 cells; about a fifth of its hits are not listed in these tables; note: % is set by controls: 0 for no effect and ±100 for the full control effect; luciferase read-out
Cruzain inh Det: cruzain (T. cruzi) inhibition with detergent; P25779; purified cruzain, Z-FR-AMC fluorescence, 0.01% Triton; Potency, µM, for the others: max response, negative = inhibition, actives largely listed as inhibitors; 200,000 tested, 0.43% active; AID 1478; active = well fitted curve in the direction sought with a large enough effect; inconclusive = small, poorly fitted or top-dose-only effect, or another doubt; inactive = no such curve, though single readings can be large; an effect the other way counts as inactive or inconclusive;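 note: plate controls were neutral wells for no effect and buffer without enzyme for full effect; nearly all actives have a fitted effect of over 40% in size; top concentration of the series not given in the record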
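Purified cruzain (1.5 nM final) was preincubated with compounds for 15 min at room temperature in 100 mM sodium acetate pH 5.5, 5 mM DTT, 0.01% Triton X-100. Reaction started with 2 uM Z-FR-AMC; AMC fluorescence change over 60 s gave activity.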
* hit, by the source's call; ? = inconclusive; . = not tested or not shown; & = joins results of further samples; [ ] = another dose, or the depositor's remark. Unless noted, calls come from the whole dose curve; as a rule, active means well fitted rising curve with a large enough effect; inconclusive means small, poorly fitted or top-dose-only effect; inactive means no such curve, though single readings can be large or run the other way. Potency is the fitted concentration of half-maximal effect.

SMILES	2A StopGo	Cruzain inh noDet	LASV entry inh	RE007 growth inh	SARS PLP yeast	NS1 function inh	MARV entry inh	Cruzain inh Det
CS(=O)(=O)N(CCc1ccccc1)CC(=O)NCc1ccccc1	12%	.	?	-12%	4%	0%	?	.
COC(=O)C1=C(N)Oc2cc(C)n(Cc3cccnc3)c(=O)c2C1c1ccc(OC)c(OC)c1 (stereo not drawn)	-5%	-2%	-7%	5%	5%	-28%	-5%	-0.5%
CC(=O)c1ccc2c(c1)OCCOCCOCCOCCOCCO2	7%	.	14%[46.1 µM]	3%	1%	-6%	-3%[46.1 µM]	.
Cc1sc2ncn3cnnc3c2c1C	-10%	-7%	9%	15%	-6%	-10%	19%	-1.0%
N#Cc1ccc(-c2csc(-c3ccno3)n2)cc1	6%	.	-2%	18%	-2%	-3%	?	.
CC(=O)c1cccc(NC=C2C(=O)OC3(CCCCC3)OC2=O)c1	-13%	3%	13%	-25%	-16%	-10%	?	-2.7%
CC(=O)N1CCN2C(=O)C1CCCC(=O)c1cc(C)ccc12 (stereo not drawn)	-16%	-3%	-1%	2%	8%	7%	7%	-0.1%
Cc1cccc(C(=O)NC(CC(=O)O)c2ccc(OC3CCCC3)cc2)c1[N+](=O)[O-] (stereo not drawn)	0%	.	2%	-7%	1%	.	6%[46.1 µM]	.
O=c1c2sc3ccccc3c2n(Cc2cccc(Cl)c2)c(=O)n1Cc1ccc(F)cc1	-18%	6.3µM*	-18%[46.1 µM]	.	.	.	?	-3.6%
O=C(c1cn(CC(=O)N2CCCCC2)c2ccccc12)C1CC1	-7%	0%	-4%	-8%	5%	3%	14%	5.6%
Cc1ccc(N(C(C)C(=O)N2CCCCC2)S(C)(=O)=O)cc1C (stereo not drawn)	-9%	-1%	-26%	4%	-3%	0%	21%	4.4%
COc1ccc(/C=N/Nc2nc(-c3cccc(S(=O)(=O)N4CCCC4)c3)cs2)c(OC)c1	?	7.9µM*	?	-22%	3%	?	?	-1.8%
CN(CC(=O)Nc1ccccc1Br)C(=O)c1ccccc1OCc1ccc(Cl)cc1	?	.	?	2%	.	.	-28%	.
CSCCC(NS(=O)(=O)c1cccc(C(F)(F)F)c1)C(=O)N(C)Cc1ccc2c(c1)OCCO2 (stereo not drawn)	-19%	.	?	5%	-2%	-10%	-27%	.
COc1ccc(-n2c(=O)c3c(c4cc(OC)ccc4n3C)n(Cc3cccc(OC)c3)c2=O)cc1	-10%	1%	24%[46.1 µM]	.	.	.	.	-1.3%
O=C(c1nn2c(C(F)(F)F)cc(-c3cccs3)nc2c1Br)N1CCCc2ccccc21	21%	?	10%	27%	-5%	25%	17%	-4.8%
CS(=O)(=O)Nc1ccc(S(=O)(=O)N2CCCC2)cc1	-4%	.	?	-13%	2%	0%	-9%[46.1 µM]	.
O=C(COC(=O)c1ncc(Cl)c(Cl)c1Cl)Nc1ccccc1OC(F)F	5%	-10%	6%	-13%	-30%	2%	18%	-8.1%
Cc1ccc(-n2nc3c(=O)n(CC(=O)NCc4ccccn4)nc(C)c3c2C)cc1	-11%	.	.	3%	2%	1%	.	.
COC(=O)C1CSC(C(=O)OC)N1C(=O)CN1CCN(c2ccccc2)CC1 (stereo not drawn)	-9%	.	-3%	-11%	4%	1%	4%[46.1 µM]	.
O=C(Nc1ncc(Cc2cccc(Cl)c2)s1)c1ccc([N+](=O)[O-])cc1	?	?	?	2%	13%	6%	-14%	-3.4%
CCN(CC)C(=O)CSc1nc2ncc(Cl)cc2[nH]1	6%	-10%	-6%	-23%	-5%	3%	1%	1.5%
O=C(c1cc(-c2ccc(Cl)cc2)n[nH]1)N1CCN(C(=O)c2ccco2)CC1	-14%	.	.	-11%	11%	-14%	.	.
CCn1c(C)c(C(C)=O)c(N2CCN(c3ccccn3)CC2)nc1=S	10%	-9%	73%[14.3 µM]	-17%	.	4%	-11%	4.5%
Cc1c(Cl)cccc1NC(=O)Nn1cnnc1	-18%	.	.	-2%	3%	14%	.	.
CCc1cc(/C(Cc2ccc3ccccc3n2)=N\O)c(O)cc1O	-10%	-8%	?	-1%	-12%	-132%	-15%	-12%
S=C(c1c[nH]c2ccccc12)N1CCCC1	-22%	.	6%	9%	-2%	3%	-12%	.
COc1cc(CC(=O)OCC(=O)c2ccc3c(c2)OCCO3)cc(OC)c1OC	-12%	-5%	?	9%	3%	-39%	?	-10%
Cc1ccc(S(=O)(=O)Nc2cc(C(C)C)c(O)cc2C)cc1	4%	-3%	1%	-3%	1%	-114%	-12%	-1.1%
O=C(c1ccc(CS(=O)(=O)c2c(Cl)cccc2Cl)o1)N1CCN(c2ccccc2)CC1	?	4%	?	.	.	.	?	1.2%
Cc1ccc(S(=O)(=O)N(C)CCCC(=O)N2CCCCC2)cc1	-5%	.	.	6%	2%	14%	.	.
c1ccc(-c2cn3c(n2)SCC3)cc1	47%[activator]	-7%	13%	11%	25%	0%	16%	-0.1%
Cc1nn(-c2ccc(C(=O)O)cc2)c(N)c1-c1ccccc1	-25%	-4%	-7%	-1%	-3%	10%	?	1.1%
Cc1cccc(C)c1NC(=O)N1CCC(n2cnc3ccccc32)CC1	-1%	4%	1%	0%	5%	2%	2%[46.1 µM]	0.6%
COc1ccccc1Nc1nc(-c2sc(NC(=O)c3cccc(Cl)c3)nc2C)cs1	.	7.9µM*	.	.	-1%	5%	.	11%
COC(=O)C(NC(=O)COc1ccccc1)(Nc1nc2c(s1)CCCC2)C(F)(F)F (stereo not drawn)	0%	1%	0%	-6%	-18%	-8%	-4%	-9.5%
CCCS(=O)(=O)c1nnnn1-c1cccc(OC)c1	28µM*	-4%	-23%[14.3 µM]	-29%	-27%	-90%	26µM*	-1.6%
COC(=O)c1ccc(CSC2=NCCS2)cc1	-3%	-1%	?	-10%	17%	3%	6%	-0.7%
CS(=O)(=O)c1ccc(C2=C(c3ccccc3)C(=O)OC2)cc1	-20%&4%	?	.	-2%	.	.	.	23%
O=C1S/C(=C\c2ccc(O)c([N+](=O)[O-])c2)C(=O)N1Cc1cccc([N+](=O)[O-])c1	-27%	.	-18%	10%	-2%	-1%	?	.
O=C(Nc1ccc2c(c1)OCCO2)c1ccc2ccccc2n1	-18%	.	?	6%	-5%	.	?	.
Cc1c(N=Cc2ccc(O)c(Br)c2)cccc1[N+](=O)[O-]	0%	-14%	7%	-13%	2%	-25%	3%	-8.3%
COc1ccc(NC(=S)c2ccc(N(C)C)cc2)cc1	42%[activator]	8%	15%	-1%	-5%	14%	?	-4.2%
CS(=O)(=O)N1CCCC(C(=O)Nc2ccc(Br)cc2F)C1 (stereo not drawn)	-7%	.	4%	3%	0%	-1%	17%	.
Cc1c(NC(=O)CN2C(=O)c3ccccc3C2=O)c(=O)n(-c2ccccc2)n1C	-9%	-4%	1%	-2%	3%	-1%	2%	-0.8%
CN(Cc1ccccc1)S(=O)(=O)c1cc(Br)cc2c1N(C(=O)C1CC1)CC2	3%	-11%	?	.	.	.	-30%[46.1 µM]	-4.1%
CN(C)C(CNC(=O)c1cccs1)c1cccnc1 (stereo not drawn)	-11%	-27%	.	18%	1%	-4%	.	-1.1%
COc1ccc2nc(SCC(=O)Nc3ccccc3)[nH]c2c1	1%	-18%	?	7%	.	?	-3%	-30%
CCc1sc(C(=O)N2CCN(S(C)(=O)=O)CC2)cc1Br	-19%	1%	8%	-1%	3%	-3%	-1%	1.3%
COc1ccc(N2C(=O)CSC2c2ccccc2F)c(OC)c1 (stereo not drawn)	-17%	.	-26%	-5%	9%	3%	?	.

Other compounds follow:
SMILES	2A StopGo	Cruzain inh noDet	LASV entry inh	RE007 growth inh	SARS PLP yeast	NS1 function inh	MARV entry inh	Cruzain inh Det
Cc1cc(C(F)F)nn1CC(=O)Nc1cc([N+](=O)[O-])ccc1F	-20%	6%	3%	2%	20%	18%	8%	-1.8%
CCN(CC)S(=O)(=O)c1ccc(N2CCCCC2)c(C(=O)Nc2ccccc2N2CCOCC2)c1	-8%	?	10µM*	7%	?	5%	5.6µM*	-12%
COc1ccccc1CCC(=O)OCC(=O)Nc1c(C)nn(-c2ccccc2)c1C	-2%	.	-5%[46.1 µM]	49%	1%	.	?	.
COc1ccc(OC)c(-n2c(=S)[nH]c3c(sc(=S)n3-c3ccccc3C)c2=O)c1	-29%	.	-15%	-2%	3%	.	3%[46.1 µM]	.
Cc1ccccc1-n1c(SCC(=O)Nc2ccccc2)nc2nc3c(cc2c1=O)CCCC3	-18%	-26%	-13%	-6%	9%	?	?	-5.1%
COc1cc(OC)c(N(C)C(=O)c2cc3c(=O)oc4ccccc4c3s2)cc1Cl	-23%	7%	?	.	.	.	18%[46.1 µM]	-0.5%
O=C(c1cc2cc(Br)cc(Br)c2oc1=O)N1CCOCC1	0%	.	-5%[46.1 µM]	-9%	3%	2%	15%[46.1 µM]	.
CCNC(=S)N/N=C/c1ccco1	8%	-4%	18%	3%	16%	6%	16%	-2.7%
Cc1cccc(NCc2ccc(O)c3ncccc23)c1	-21%	.	?	12%	-1%	6%	?	.
COc1cc(OC)c(/C=N/n2c(C3CCCCC3)n[nH]c2=S)c(OC)c1	-3%	.	?	1%	1%	6%	-1%	.
CCOc1ccccc1NC(=O)CSc1nc2c(c(=O)n1C)SC(C)C2 (stereo not drawn)	-27%	-10%	.	6%	-9%	-51%	.	-2.7%
CCOc1cccc(-c2nc(C(N)=O)c3[nH]c(=O)n(-c4cccc(Cl)c4)c3n2)c1O	0%	14%	0%	-6%	3%	0%	8%	0.9%
